# Source: PubChem
# Rango release inh = inhibition of RanGTP-driven Rango-importin beta dissociation | O95149+P62826 | Biochemical FRET Rango-importin beta, RanGTP-induced dissociation | Potency, µM (titrated, usually from 46.1 µM), without a hit: at the top dose activity change, negative = inhibition | 340,000 compounds, 0.071% hits | AID 540253; active means falling FRET ratio curve, often poorly fitted, with flat reads before Ran was added; inconclusive means other falling curves, or compound fluorescence or quenching; inactive means flat or rising ratio curve;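 note: potency is the fitted concentration of half-maximal effect; % of control where 0% means no effect; nearly all actives have a fitted effect of over 45% in size; -100% = wells without RanGTP and RCC1; the record marks most hits as doubtful in a second field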
#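 Quantitative HTS using a FRET biosensor: 0.1 uM Rango, 0.25 uM importin beta, 0.6 uM Ran, 2 mM GTP, 0.2 uM RCC1 final, PBS with DTT, Tween-20 and BSA. Post-read taken 45 min after Ran addition.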
# Rango complex inh = inhibitors of Rango-importin beta complex formation | Q14974 | Rango CFP/YFP FRET sensor + importin beta, 45 min | Potency, µM (doses to about 92.2 µM), without a hit: at the top dose inhibition of complex formation | 340,000 compounds, 0.031% hits | AID 540263; active = rising FRET ratio curve, often small or poorly fitted; inconclusive = mostly compound fluorescence or quenching in the first reads; inactive = flat curves in all reads;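 note: potency is the fitted concentration of half-maximal effect; 0% = DMSO wells and 100% = buffer wells lacking importin beta; nearly all actives have a fitted effect of over 15% in size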
# Target sequence (Q14974 whole entry, looked up): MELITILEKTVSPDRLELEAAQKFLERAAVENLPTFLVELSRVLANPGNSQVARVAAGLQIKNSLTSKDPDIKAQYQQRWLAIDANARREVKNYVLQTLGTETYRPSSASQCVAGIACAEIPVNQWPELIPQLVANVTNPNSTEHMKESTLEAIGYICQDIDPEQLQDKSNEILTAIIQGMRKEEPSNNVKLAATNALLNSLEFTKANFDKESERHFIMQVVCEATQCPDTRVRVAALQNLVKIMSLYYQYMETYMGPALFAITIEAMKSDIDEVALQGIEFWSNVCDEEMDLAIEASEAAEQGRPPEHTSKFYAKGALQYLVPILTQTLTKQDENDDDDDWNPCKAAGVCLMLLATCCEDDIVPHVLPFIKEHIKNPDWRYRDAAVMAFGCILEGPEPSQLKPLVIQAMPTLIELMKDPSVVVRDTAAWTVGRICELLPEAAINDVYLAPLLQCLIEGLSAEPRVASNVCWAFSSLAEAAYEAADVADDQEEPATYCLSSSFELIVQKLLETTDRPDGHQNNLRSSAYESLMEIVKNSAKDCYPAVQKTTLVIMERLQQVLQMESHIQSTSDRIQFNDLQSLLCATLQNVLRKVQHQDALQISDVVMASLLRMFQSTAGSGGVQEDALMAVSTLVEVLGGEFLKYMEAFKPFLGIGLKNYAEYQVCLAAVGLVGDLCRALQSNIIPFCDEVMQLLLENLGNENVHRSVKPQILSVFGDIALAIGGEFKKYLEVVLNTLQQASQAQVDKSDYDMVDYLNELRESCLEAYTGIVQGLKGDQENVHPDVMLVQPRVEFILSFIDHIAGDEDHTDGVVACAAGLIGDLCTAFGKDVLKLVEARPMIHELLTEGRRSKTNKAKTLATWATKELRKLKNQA
#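 FRET biosensor Rango (snurportin 1 IBB between N-terminal EYFP and C-terminal Cerulean), 50 nM in PBS/1 mM DTT/0.02% Tween-20/0.1% BSA, preincubated 5 min RT with compound; 0.125 microM importin beta added, 45 min RT, CFP/YFP FRET ratio read.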
# miR-21 reporter = raises the signal of a miR-21 reporter; 340,000 tested, under 10 active; HeLa miR-21 FLuc reporter, luciferase, 48 h; Potency, µM (series often up to 38.3 µM), for the others: top-dose reporter change, positive = more light; active = well fitted rising curve with a large enough effect; inconclusive = small, poorly fitted or top-dose-only effect; inactive = no such curve, though single readings can be large or run the other way;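 note: % of control where 0% means no effect; miR-21 action dims this reporter so a rising signal means less miR-21 action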
#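 HeLa cells endogenously expressing miR-21, stably carrying CMV-driven firefly luciferase with a downstream miR-21 binding site, 2000 cells/well. Titrations up to approximately 40 uM, 48 hours; luciferase luminescence read.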
# GLA inh pH 4.5 = inhibitors of human alpha-galactosidase A at pH 4.5; purified enzyme, 4-MU-alpha-Gal fluorescence, pH 4.5; P06280; 230,000 tested, under 10 active; activity change, negative = inhibition, % at 105 µM; inconclusive = small, poorly fitted or top-dose-only inhibition, or a rising curve; inactive = flat fitted curve, though single readings scatter; no compound was filed as active;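 note: 0% = full activity with enzyme and -100% = basal without enzyme; dose as in the result columns while the protocol names 77 µM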
# Active calls of the source: *; ? = inconclusive; · = not tested or not shown; & = joins results of further samples. These rows are one share of the data; rates above refer to the full screens.
# Each structure is followed by: Rango release inh, Rango complex inh, miR-21 reporter, GLA inh pH 4.5
COc1cc(C(=O)NCC(c2cccs2)N2CCOCC2)cc(Br)c1OCc1ccccc1 (centres undefined)
  36%, 2.4%, ·, ·
CCc1cc(C(=O)N2CCCC(CNC(=O)c3ccc(-c4ccccc4)cc3)C2)no1 (centres undefined)
  25%, 2.3%, 0%, -4
COCCN(CC(=O)Nc1cc(Cl)ccc1-n1cncn1)Cc1nc2ccccc2c(=O)[nH]1
  19%, -3.7%, ·, ·
CC(=O)c1cccc(OCc2cc(C(=O)NCc3nc(C)c(C)s3)no2)c1
  13%, -1.4%, -44%, ·
CCCc1[nH]n(-c2nc3ccccc3s2)c(=O)c1C=NCC1CCCO1 (centres undefined)
  17%, -2.8%, -26%, -9
Cc1ccc(NC(=O)/C=C\C(=O)NCC(=O)O)cc1
  24%, -3.4%, -2%, 2
CN(Cc1ccccc1)C(=O)c1[nH]cnc1C(=O)Nc1nccs1
  4%, -0.6%, ·, ·
O=C1COc2c1ccc(O)c2O
  ?, 7.6%, ·, ·
COc1ccccc1-n1ccnc(SCC(=O)NCCc2ccccc2)c1=O
  -2%, 0.3%, ·, ·
Cn1nnnc1SCC(=O)NNC(=O)c1ccc(F)cc1
  23%, 0.9%, 0%, 2
Cc1ccc(Cl)cc1NC(=O)COC(=O)C12CC3CC(CC(C3)C1)C2
  -19%&9%, 0.0%&-1.8%, -3%&-6%, 1&-4
Cc1cc(C(=O)CN2C(=O)CCC2=O)c(C)n1Cc1ccccc1
  -9%, -2.0%, -6%, -3
CC1CCN(C(=O)CSc2nnc(-c3cccnc3)o2)CC1
  13%, 3.1%, 3%, ·
CC(C)NC(=O)c1cc(-c2cccs2)nc2ccccc12
  -3%, -1.9%, 5%, ·
CCCCCc1nc2sc3c(c2c(=O)n1N)CCC3
  -1%, -1.7%, -5%, 3
OCCCc1nc2ccccc2n1Cc1ccccc1
  -17%, -0.1%, -1%, ·
Cc1cc(C)c2cc(C(=O)N3CCN(c4ncccc4C(F)(F)F)CC3)[nH]c2c1
  -12%, 7.8%, -2%, ·
CCc1ccccc1N(C(=O)Cn1nnc2ccccc21)C(C(=O)NCCOC)c1ccco1 (centres undefined)
  43%, -1.0%, -3%, -1
CC(c1ccccc1)N1CC(C(=O)Nc2ccc(F)cc2)CC1=O (centres undefined)
  1%, 3.1%, ·, ·
Cn1c(=O)[nH]c2ncccc21
  11%, -5.3%, -1%, 0
O=C(NCC1(N2CCCCC2)CCCCC1)C1CC(=O)N(c2ccc3c(c2)OCCO3)C1 (centres undefined)
  -2%, 2.4%, -1%, 5
Cc1cc(OCC(=O)NC(C)C)cc(C)c1Br
  -4%, -2.7%, -11%, 3
Cc1cc(NC(=O)COn2nnc3ccccc32)no1
  29%, -0.1%, -4%, 5
Cn1c(CNC(=O)c2ccccc2F)nnc1SCc1nc2ccccc2c(=O)[nH]1
  ·, ·, 0%, 4
COc1ccc(C(=O)Nc2nncs2)c(OC)c1
  16%, 2.5%, -49%, 5
COc1ccc2[nH]c(=O)c(CNc3cc(C)ccc3C)cc2c1
  ?, -0.1%, -22%, -4
CC1(c2ccc(OC(F)F)cc2)NC(=O)N(CC(=O)Nc2ccc3c(c2)OCO3)C1=O (centres undefined)
  13%, -1.9%, -2%, -2
CCOc1ccccc1CNC(c1ccccc1)c1ccccc1
  27%, -0.9%, -1%, ·
COc1ccc([N+](=O)[O-])c(OC)c1C(=O)NC(=O)Nc1nc(C)nc(C)n1
  -12%, -3.8%, 0%, ·
C=CCOc1ccc(/C=N/n2cncn2)cc1OC
  16%, -0.5%, -7%, 4
O=C(c1ccc2ccccc2n1)N1CCN(c2ccccc2)CC1
  -8%, 3.1%, -7%, 6
O=C(O)C1Cc2[nH]cnc2C(c2ccccc2O)N1 (centres undefined)
  -10%, 2.8%, 0%, 4
CN(C)c1ccc(P(=O)(OC2CCCCC2)C(O)c2ccccn2)cc1 (centres undefined)
  -12%, 1.7%, -1%, -1
Cc1cc(C(=O)Nc2ccc(F)cc2C)cs1
  -6%, 1.0%, 0%, ·
S=c1nc2ccccc2c2nc(-c3ccccc3)[nH]n12
  18%, 4.3%, -27%, -1
C=C(C)C1CC=C(C)/C(=N/NC(=S)Nc2ccccc2)C1 (centres undefined)
  -12%, 5.6%, -19%, 1
Cc1ccc2nc3ccc(N4CCN(C)CC4)nn3c(=O)c2c1
  -9%, ?, -10%, 5
CC(=O)Nc1ccc(S(=O)(=O)NCCc2ccccn2)cc1
  -10%, -5.0%, 0%, 6
O=C(Nc1ccc(C(=O)N2CCCc3ccccc32)cc1)c1cccs1
  -11%, 0.1%, 4%, ·
O=C1CCCC2=C1C(c1ccc(Br)cc1)c1c([nH]c(=S)[nH]c1=O)N2 (centres undefined)
  -27%, -1.0%, 9%, 13
COc1cc(/C(C)=N/NC(=O)c2cccc(S(=O)(=O)N3CCCC3)c2)cc(OC)c1OC
  12%, ?, 0%, ·
Cc1onc(-c2ccccc2Cl)c1C(=O)Nc1nc2ccc(S(C)(=O)=O)cc2s1
  0%, 5.9%, -2%, 0
O=C(N/N=C/c1ccc(F)cc1)c1ccc(OCc2ccccc2)cc1
  -2%, 1.4%, -2%, -20
Cc1ccccc1-n1c(SCC(=O)NCC2CCCO2)nc2c([nH]c3ccccc32)c1=O (centres undefined)
  12%, 0.4%, 0%, ·
Cc1cc(C)cc(NC(=O)CN2C(=O)c3ccccc3C2=O)c1
  19%, -2.9%, -1%, ·
CCCCC(CC)COC1(c2ccccc2)OC(=O)c2ccccc21 (centres undefined)
  12%, -1.9%, -7%, 0
COc1ccc(-c2nnc(NC(=O)c3ccc(S(=O)(=O)N(C)CC4CCCO4)cc3)o2)c(OC)c1 (centres undefined)
  -5%, 0.0%, 0%, ·
CCCC1C(c2ccco2)NC(c2ccco2)CC1(C)O (centres undefined)
  -17%, -5.5%, 0%, -8
CSC1=NCCN1C(=O)c1ccc2c(c1)OCO2
  -4%, 0.7%, -16%, 2
CCn1c(O)c(C=C2N=c3ccccc3=N2)sc1=S
  -3%, ?, -4%, -4
O=C(c1cc(C2CC2)nn1-c1ccccc1)N1CCN(Cc2ccccc2F)CC1
  -2%, 1.4%, ·, ·
CC1CCN(C2=NC(=O)/C(=C/c3cccc(O)c3)S2)CC1
  -15%, 0.6%, -35%, ·
O=C(c1nc2ccccn2c1CN1CCCC(c2nc3ccccc3o2)C1)N1CCCC1 (centres undefined)
  -17%, -1.9%, -2%, -3
Cc1cc(C)cc(Oc2ccccc2CO)c1
  ·, ·, -14%, 1
CCN(CC)c1ccc(C=Nc2cc(C)ccc2C)c(O)c1
  2%, 0.1%, -7%, -4
CCOC(=O)c1c(N2CCCCC2)c2ccccc2[nH]c1=O
  -6%, 1.8%, 9%, -6
CCC(SC1=NCCS1)C(=O)Nc1nnc(-c2ccccc2OC)s1 (centres undefined)
  17%, 7.8%, -6%, 4
CCOc1cccc(=O)c2c(C)n(Cc3ccco3)c(C)c12
  16%, -0.4%, -12%, 0
CCC(CC)NC(=O)c1cccc(Br)c1
  ?, 3.3%, -1%, -5
COc1ccc(/C=N/NC(=O)CC#N)cc1Oc1nc(Cl)ncc1F
  0%, -3.8%, -1%, ·

# Single records, from the list above:
# `OCCCc1nc2ccccc2n1Cc1ccccc1` as listed: Rango release inh: -17%; Rango complex inh: -0.1%; miR-21 reporter: -1%; GLA inh pH 4.5: ·
# `O=C(NCC1(N2CCCCC2)CCCCC1)C1CC(=O)N(c2ccc3c(c2)OCCO3)C1` (centres undefined) as listed: Rango release inh: -2%; Rango complex inh: 2.4%; miR-21 reporter: -1%; GLA inh pH 4.5: 5

# Next section:
molecule	Rango release inh	Rango complex inh	miR-21 reporter	GLA inh pH 4.5
Cc1ccc(NC(=O)CCC(=O)N/N=C/c2ccc([N+](=O)[O-])o2)cc1C	-23%	?	?	8
C#CCSc1nnc(-c2sc(-c3ccccc3)nc2C)n1C	-3%	?	-27%	5
COCCNc1ccc([N+](=O)[O-])cc1C(=O)Nc1cccc(C)n1	-21%	-1.4%	-9%	-7
CC(C)OC(=O)Cn1nnc2c(cnn2-c2ccccc2)c1=O	7%	1.7%	-51%	1
Cc1nnc(SCC(=O)Nc2sccc2C(N)=O)s1	-4%	2.0%	·	·
O=C(C1=C[C@@H](c2ccc(Br)cc2)C[C@@H](OCc2ccc(CO)cc2)O1)N1CCOCC1	-2%	-0.2%	4%	-2
CN(C)S(=O)(=O)c1cccc(C(=O)NC2CCCc3ccccc32)c1 (centres undefined)	28%	1.8%	-14%	-7
CCOC(=O)c1c(C)cc(O)cc1O	1%	-1.2%	·	2
C=C(CN(C)C)C(=O)c1cc(C)ccc1C	2%	1.7%	·	·
COc1ccc(Cl)cc1NC(=O)CCN1C(=O)C2C3C=CC(C4CC34)C2C1=O (centres undefined)	7%	-2.1%	-2%	·
CCCn1c(=O)c2ccccc2n2c(SCC(=O)c3ccc(F)cc3)nnc12	·	·	0%	8
CN(NS(=O)(=O)c1ccc(Br)cc1)c1nc(C(F)(F)F)nc2ccccc12	1%	0.1%	4%	-9
Cc1ccc(NC(=O)NNC(=O)c2cc3ccccc3cc2O)c(C)c1	?	?	-2%	·
CCOC(=O)CC(=O)Nc1ccc(Br)cc1C(=O)O	-14%	2.2%	6%	0
COCCN(C(=O)CSc1nnc(-c2ccc(C)cc2)n1N)c1c(N)n(Cc2ccccc2)c(=O)[nH]c1=O	13%	0.4%	0%	·
COC(=O)c1ccc(OC)c(Cn2c(=O)n(C)c(=O)c3sccc32)c1	-11%	-3.9%	-13%	·
COC(=O)c1cc(S(=O)(=O)NCc2cccs2)c[nH]1	?	-2.7%	-1%	·
CSCCC(Nc1ccc(S(=O)(=O)N2CCOCC2)cc1[N+](=O)[O-])C(=O)OCC(=O)NCC(C)C (centres undefined)	-11%	-1.0%	-8%	1
O=C(CSc1nnc(NC(=O)c2ccccc2F)s1)NCc1ccco1	14%	-2.2%	-33%	·
CCOc1ccc(C2OC(=O)Cc3cc(OC)c(OC)cc32)cc1 (centres undefined)	1%	0.0%	-1%	9
COc1ccc(CCN2C(=O)C(O)=C(C(C)=O)C2c2ccccc2OC)cc1OC (centres undefined)	1%	0.2%	-18%	4
Cc1cc(N2C(=O)C(=O)/C(=C(/O)c3ccc(F)cc3)C2c2ccc(F)cc2)no1 (centres undefined)	0%	0.8%	-6%	5
Cc1ccc2c(c1)C(C)CC(C)(C)N2C(=O)NC1CCCCC1 (centres undefined)	1%	0.1%	-9%	1
Cc1ccc(S(=O)(=O)NC2=NCN(C3CCCCC3)CN2)cc1	8%	3.1%	-3%	-20
Cc1ccc(NC(=O)CN(C)C(=O)CSc2nc3ccccc3c(=O)n2Cc2ccco2)cc1	-3%	-3.2%	14%	1
C/C(=N\NC(=O)C(N)=O)c1ccc(OC(F)F)cc1	?	1.6%	-3%	1
O=C(CN(C(=O)c1ccccc1)N1C(=O)CCC1=O)c1cccs1	1%	4.4%	-11%	·
COc1ccccc1Cc1noc(-c2cc(Cl)ccc2OC)n1	?	?	-20%	-3
CCOC(=O)c1cccc(NC(=O)CN2CCN(c3ccc(OC)cc3)CC2)c1	11%	1.6%	-6%	5
COc1cc(SC)ccc1C(=O)OC(C)C(=O)NC1CCCC1 (centres undefined)	8%	-0.6%	-7%	0
COc1ccc(S(=O)(=O)N2CCCCC2)cc1NC(=O)CCNC(=O)c1ccco1	-13%	-2.6%	·	·

# Exported with each value named: part of the list above.
O=C(CN(C(=O)c1ccccc1)N1C(=O)CCC1=O)c1cccs1
  Rango release inh = 1%
  Rango complex inh = 4.4%
  miR-21 reporter = -11%
  GLA inh pH 4.5 = ·
COc1ccccc1Cc1noc(-c2cc(Cl)ccc2OC)n1
  Rango release inh = ?
  Rango complex inh = ?
  miR-21 reporter = -20%
  GLA inh pH 4.5 = -3
